RmlCD inh 1536 = blocks M. tuberculosis RmlC and RmlD coupled enzymes; P9WH09+P9WH11; RmlC+RmlD coupled enzyme assay, percent inhibition; primary screen in compound mixtures; inhibition, % at 3.6 µM; 160,000 tested, 0.03% active; in the data active = inhibition mostly above about 34%, no sharp cut-off; only retested compounds are shown here; also: some results filed as inactive read as strong as hits
Target sequence (P9WH09 whole entry, looked up): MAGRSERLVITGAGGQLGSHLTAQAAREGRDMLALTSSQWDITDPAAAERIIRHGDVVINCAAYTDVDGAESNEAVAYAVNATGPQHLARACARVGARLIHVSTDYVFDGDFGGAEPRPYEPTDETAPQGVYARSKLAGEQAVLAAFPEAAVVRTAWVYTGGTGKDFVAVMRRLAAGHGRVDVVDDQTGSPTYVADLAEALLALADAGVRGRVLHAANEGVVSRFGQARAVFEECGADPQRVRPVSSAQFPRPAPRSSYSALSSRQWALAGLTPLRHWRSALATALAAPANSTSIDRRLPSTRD
Target sequence (P9WH11 whole entry, looked up): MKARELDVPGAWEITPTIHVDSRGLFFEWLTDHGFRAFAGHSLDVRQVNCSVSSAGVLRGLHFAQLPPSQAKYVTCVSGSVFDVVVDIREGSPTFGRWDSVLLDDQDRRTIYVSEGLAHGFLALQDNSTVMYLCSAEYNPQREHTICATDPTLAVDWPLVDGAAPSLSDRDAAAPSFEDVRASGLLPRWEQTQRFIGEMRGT
RmlCD inh 1536 retest = further read-out of RmlCD inh 1536, marked with its call; inhibition, %; measured here: mean retest inhibition;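 single compounds in two wells; values far above 100% likely come from compound fluorescence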
The depositor's hits bear a star. The list is partial (hit frequency here may not be typical).

SMILES	RmlCD inh 1536	RmlCD inh 1536 retest
CNC(=O)Cn1nc(C)c2ccccc2c1=O	98	-18
CCn1c(SCC(=O)Nc2ccc(OC)cc2OC)nc2nc3c(cc2c1=O)COC(C)(C)C3	55	-3
CC(C)n1c(C(F)(F)F)nc2cc(C(=O)N3CCCCC3)ccc21	66	-9
COc1ccc(OC)c(NC(=S)N2CCN(Cc3ccccc3)CC2)c1	88	9
COc1ccc(CC(=O)Nc2ccc(NC(=O)c3ccccc3F)cc2)cc1	32	2
O=C(/C=C/c1ccc(F)cc1)N1CCN(c2ncccn2)CC1	31	4
CCSC(=O)NC12CC3CC(CC(C3)C1)C2	61	3
CCn1nc(CC(=O)Nc2nnc(CC(=O)N3CCCCC3)s2)c2ccccc2c1=O	62	-14
CC(=O)Nc1cccc(/C(C)=N/NS(=O)(=O)c2ccc(C)cc2)c1	74	5
COc1nc(-c2ccc(Cl)cc2)nnc1C	67	-2
N/C(=N\OC(=O)C12CC3CC(CC(C3)C1)C2)c1ccncc1	88	8
CC(C)CC(=O)NC(NC(=O)CC(C)C)c1cccc([N+](=O)[O-])c1	43	8
O=C1NCCN(C(=O)CCc2nnc(-c3ccsc3)o2)C1c1ccc(F)cc1 (stereo not given)	43	-6
Cc1cc(N2CCCC2)ccc1/C=C1/C(=O)N(C)C(=S)N1C	67	0
COC(=O)c1ccc(COc2ccccc2/C=C(\C#N)C(=O)Nc2c(C)cc(C)cc2C)cc1	32	6
Cc1ccc(CNC(=O)CNC(=S)N(Cc2ccccc2)Cc2ccccc2F)cc1	35	-7
O=C(CCc1ccccc1)NNc1cc(N2CCCCC2)nc(N2CCCCC2)n1	88	-7
c1ccc(-c2cc3c(N4CCCC4)ncnc3s2)cc1	67	-31
O=C(NCCN1C(=O)S/C(=C\c2ccccc2)C1=O)C1CCN(S(=O)(=O)c2cccs2)CC1	31	3
COc1ccc(CCNC(=O)/C(C#N)=C/c2cccc(OCc3ccccc3)c2)cc1OC	75	6
O=C(c1ccc([N+](=O)[O-])s1)N1CCN(c2ccccc2)CC1	33	-9
COc1ccc2nc(N3C(=O)CNC3=S)sc2c1	31	1
O=C(COC(=O)/C=C/c1ccc(Cl)cc1)NCCc1ccccc1	37	-12
Cc1c(Cl)cccc1NC(=O)CCCN1C(=O)CCC1=O	59	-6
CC1Cc2ccccc2N1C(=O)COC(=O)C1(c2ccccc2F)CCCC1 (stereo not given)	39	-12
COC(=O)c1c(-c2c(Cl)cccc2Cl)noc1NC(=O)N(C)C	78	-8
O=C(O)c1nccnc1C(=O)NCc1csc2ccc(Cl)cc12	35	-11
c1ccc(C2CCC(N3CCC(N4CCCCC4)CC3)CC2)cc1 (stereo not given)	59	-5
CN1CCN(CCC(=O)Nc2cccc(Br)c2)CC1	33	2
O=C(Cn1c2c(sc1=O)C1c3ccccc3OCC1CS2)Nc1ccc(Cl)c(Cl)c1 (stereo not given)	50	5
C/C(=N/NC(=O)COc1cc(C)ccc1C(C)C)C(=O)O	46	7
Cc1cc(C(=O)NN)c(Cl)cc1Cl	85	9
Cn1c(O)c(N=Nc2ccc(F)cc2)c2ccccc21	32	-1
O=C(Nc1ccc(O)c(-c2nc3ccccc3s2)c1)c1cccs1	64	-10
Cc1c(C(=O)O)oc2c1/C(=N\O)CCC2	57	-8
Cc1sc2ncn(Cc3ccccc3F)c(=O)c2c1C	73	-5
CCCN1C(=O)CC(Sc2ncccc2C(=O)O)C1=O (stereo not given)	79	-3
COc1ccc(OC)c2[nH]c(=O)c(CCNC(=O)COc3ccccc3)cc12	62	-4
O=C(O)CSCC(=O)NCc1c(Cl)cccc1Oc1ccccc1	40	-7
Cc1ccccc1NS(=O)(=O)c1ccc(OCCNS(C)(=O)=O)cc1	36	-29
Cc1ccc(C)c(-c2nc3ccc(N)cc3[nH]2)c1	42	20
CCN(CC)CCN(C(=O)c1ccc(N2C(=O)CCC2=O)cc1)c1nc2cc3c(cc2s1)OCO3	35	-3
NS(=O)(=O)c1ccc(N=Cc2c(O)n(C3CCCCC3)c(=O)n(C3CCCCC3)c2=O)cc1	30	-9
Cc1ccc(S(=O)(=O)CCSc2n[nH]c(=O)n2-c2ccc3c(c2)OCCO3)cc1	42	6
O=C(CNC(=S)N(CCCN1CCOCC1)Cc1cccs1)N1CCCC1	103	4
CCC1(c2ccccc2)NC(=O)N(CC#N)C1=O (stereo not given)	42	10
COCc1c(CCl)cnc(C)c1O	46	11
CCn1cc([N+](=O)[O-])c(C(=O)Nc2ccn(Cc3ccccc3)n2)n1	46	10
COc1cccc(N=Nc2c(O)[nH]c(=S)[nH]c2=O)c1	49	9
COc1ccc(NC(=S)N2CCCCCC2)cc1OC	71	-15
CCCCC(C(=O)O)C(C)CC(=O)Nc1nccs1 (stereo not given)	82	10
CC1S/C(=N/N=C/c2ccco2)N(Cc2ccccc2)C1=O (stereo not given)	49	5
CCC(=O)N=C1SC2CS(=O)(=O)CC2N1c1cccc(OC)c1 (stereo not given)	105	-9
O=C1C2C3C=CC(C3)C2C(=O)N1CCc1ccccc1 (stereo not given)	102	1
COc1cccc(/C=C/C(=O)Nc2ccc3c(c2)OCCO3)c1	43	6
COc1cc(C(=O)COC(=O)CNC(=O)C2CCCCC2)cc(OC)c1OC	47	-2
CC(C)(C)c1ccc(C(=O)Nc2ccc(Cl)cc2)cc1	99	5
COc1ccc(Cn2c(=O)cc(N)n(-c3ccccc3C)c2=O)cc1	49	-5
Brc1csc(/C=N/Nc2nc3ccccc3s2)c1	34	-11
CCc1cc2ccc(C)cc2nc1SCC(=O)Nc1c[nH]c(=O)[nH]c1=O	107	8

Two of the compounds above, with each value named:
Cc1ccc(S(=O)(=O)CCSc2n[nH]c(=O)n2-c2ccc3c(c2)OCCO3)cc1
  RmlCD inh 1536: 42
  RmlCD inh 1536 retest: 6

O=C(CNC(=S)N(CCCN1CCOCC1)Cc1cccs1)N1CCCC1
  RmlCD inh 1536: 103
  RmlCD inh 1536 retest: 4

(continued)
SMILES	RmlCD inh 1536	RmlCD inh 1536 retest
COCCNC(=O)c1cc(Sc2nnc(C)s2)nc2ccccc12	93	10
Cc1ccc(C(=O)OCC(=O)c2c(N)n(C)c(=O)n(C)c2=O)cc1S(=O)(=O)N1CCCCC1	38	6
O=C(NNc1ccccn1)C(=O)NNS(=O)(=O)c1ccc(Cl)cc1	101	2
C=CCn1c(N)c(C(=O)NCC2CCCO2)c2nc3ccccc3nc21 (stereo not given)	54	77
CCN(CC(=O)NC(C)(C)C)C(=O)c1ccc(Br)cc1	32	-3
O=c1c2cc(NC(=S)NCCCN3CCC(Cc4ccccc4)CC3)ccc2nc2n1CCCCC2	35	-8
COc1ccc(OCC(=O)N2N=C(C(F)F)CC2(O)C(F)F)cc1 (stereo not given)	75	-4
COCCCn1c(=O)/c(=C\c2ccc(OC(F)F)c(OC)c2)s/c1=C(/C#N)C(=O)NCCOC	66*	51*
Cc1cccc(NC(=O)c2cnn(C)c2)c1C	55	-10
CC(=O)c1ccc(NC(=O)CSc2ccc3nnc(-c4cccnc4)n3n2)cc1	53	10
CCN(CCn1cccn1)Cc1cn[nH]c1-c1cccc2ccccc12	100	1
CCn1c(/C=N/Nc2ccc(C(=O)O)cc2)nc2ccccc21	61	16
CCOC(=O)CNC(=O)N1c2ccccc2Sc2ccccc21	43	-4
Cc1cc(C)cc(C(=O)NC(=S)Nc2ccc3c(c2)OCCO3)c1	31	-5
CCCCOCCCn1c(-c2ccco2)nc2nc3ccccc3nc21	57*	64*
COc1ccc(C(c2c(O)nc[nH]c2=O)c2c(O)nc[nH]c2=O)cc1	74	-14
Cc1ccccc1NC(=O)Nc1cc(-c2ccccc2)nn1C	72	6
O=C(CSc1nnc2ccc(-c3ccncc3)nn12)c1cccs1	36	-8
CCn1c(SCC(=O)NCc2ccccc2)nnc1-c1cccnc1	51	-10
COc1cccc(NC(=O)CSc2nc3ccccc3c3nc4ccccc4n23)c1	46	-8
COc1ccc(CCNC(=O)Cc2ccc3c(c2)OCO3)cc1OC	33	-7
CC(=O)c1csc(COc2ccccc2)n1	44	6
O=C(CSc1nnc(-c2ccccc2)n1-c1ccc(Cl)cc1)N/N=C/c1ccccc1C(=O)O	35	-4
Cn1cccc1/C=C1/C(=O)NC(=O)N(Cc2ccc(F)cc2)C1=O	72	-4
CCc1ccc2oc(C(=O)NCc3ccc(S(N)(=O)=O)cc3)c(C)c2c1	72	9
CCNc1nc(Cl)nc(NNC(=O)C(C)Oc2ccccc2)n1 (stereo not given)	31	5
CCOC(=O)C1CCN(C=Nc2cc(C)on2)CC1	103	4
CCc1nnc(NC(=O)c2cccc(S(=O)(=O)N(C)c3ccc(OC)cc3)c2)s1	48	5
CCOC(=O)CCSCC(=O)N1N=C(c2cccs2)CC1c1ccc(C)cc1 (stereo not given)	38	-37
Cc1ccccc1Nc1c(-c2ccncc2)nc2ccc(Cl)cn12	33	-69
O=[N+]([O-])c1ccc(/C=C2\CCC(C3=CCCC3)=C2N2CCOCC2)cc1	38	10
COc1cc(C(=O)Nc2ccc(S(=O)(=O)Nc3nccc(C)n3)cc2)c([N+](=O)[O-])cc1OC	71	12
Cc1cccc(NC(=O)c2ccco2)c1C(=O)O	61	-15
O=S(=O)(c1ccc(Cl)cc1)N1CCNCC1	97	8
CCC(C)NC(=O)Nc1ccc(C)cc1C (stereo not given)	33	-10
COc1ccc(CNC(=O)Cn2ncn3c(cc4ccccc43)c2=O)cc1	37	14
CCOc1ccc(N2CC(C(=O)NCCN3C(=O)S/C(=C\c4cccnc4)C3=O)CC2=O)cc1 (stereo not given)	66	11
CCCCn1c(N)c(C(=O)NCc2cccs2)c2nc3ccccc3nc21	82	-9
CCN(CC)S(=O)(=O)c1ccc(C(=O)NCc2ccc3c(c2)OCO3)cc1	46	-13
CC(C)CCn1nc(C(=O)Nc2nc3c(s2)CCCC3)c2ccccc2c1=O	37	7

As entered above.
Result for `CCCCn1c(N)c(C(=O)NCc2cccs2)c2nc3ccccc3nc21` in RmlCD inh 1536 retest: -9
Result for `COc1cc(C(=O)Nc2ccc(S(=O)(=O)Nc3nccc(C)n3)cc2)c([N+](=O)[O-])cc1OC` in RmlCD inh 1536: 71

Of the compounds above, these have a cyano group:
SMILES	RmlCD inh 1536	RmlCD inh 1536 retest
COC(=O)c1ccc(COc2ccccc2/C=C(\C#N)C(=O)Nc2c(C)cc(C)cc2C)cc1	32	6
COc1ccc(CCNC(=O)/C(C#N)=C/c2cccc(OCc3ccccc3)c2)cc1OC	75	6
CCC1(c2ccccc2)NC(=O)N(CC#N)C1=O (stereo not given)	42	10
COCCCn1c(=O)/c(=C\c2ccc(OC(F)F)c(OC)c2)s/c1=C(/C#N)C(=O)NCCOC	66*	51*

More results.
SMILES	RmlCD inh 1536	RmlCD inh 1536 retest
COc1ccc(CCNc2c([N+](=O)[O-])ncn2C)cc1OC	57	-12
COc1ccc(C2=NN(C(=O)CSc3nc4ncc(Cl)cc4[nH]3)C(c3ccco3)C2)cc1 (stereo not given)	59	-14
COc1ccc(CCNS(=O)(=O)c2cccs2)cc1	49	-10
CCOC(=O)c1c(-c2ccc(-c3ccccc3)cc2)csc1NC(=O)CCN1CCOCC1	38	3
Cc1ccc(/C=N/N2CCN(C3c4ccccc4-c4ccccc43)CC2)s1	34	1
CCOc1cc(/C=N/NC(=O)c2cccnc2)ccc1OCC(N)=O	33	-10
O=C(O)C1CCc2sc3[nH]c(=S)n(-c4ccccc4)c(=O)c3c21 (stereo not given)	89	-8
COC(=O)c1cc(-c2ccccc2)sc1NC(=O)c1cc(C)on1	31	-86
COc1ccccc1-c1c(C)oc2c(CN3CCN(CCO)CC3)c(O)ccc2c1=O	56*	57*
COc1ccc(CC(=O)Nc2cccc(S(=O)(=O)N3CCCCCC3)c2)cc1OC	45	-9
O=C(COC(=O)Cc1ccccc1F)Nc1cccc(S(=O)(=O)NC2=NCCCCC2)c1	59	-1
CCC(CC)C(=O)c1c[nH]c(C(=O)NCc2cccs2)c1	35	11
COC(=O)N/N=C/c1ccc(-c2cc(Cl)ccc2Cl)o1	31	-7
CCn1c2ccccc2c2cc(NC(=O)CSc3nnc(-c4cccc(Cl)c4)o3)ccc21	50	-7
C/C(N)=C(/C#N)C(=O)CSc1nnnn1-c1ccccc1	30	6
Cc1nc2ccccc2c2c1C(=O)N(c1ccc(C(=O)O)cc1)C2=O	70	7
COc1ccc(NS(=O)(=O)c2cccc(Cl)c2Cl)cc1S(=O)(=O)N1CCCCC1	33	2
Cc1nn(C)c(Oc2cccc(Cl)c2)c1C#N	53	-9
O=C(/C=C\Nc1ccc2c(c1)OCO2)c1ccc(Cl)s1	94	-3
C=CCSc1nnc(COc2ccc(=O)n(-c3ccccc3)n2)n1CC	53	-17
COc1ccc(NC(=O)C(NC(=O)Cc2cccs2)c2ccc(C)cc2)cc1 (stereo not given)	38	4
CC1(C)c2ccccc2-n2c1cc1oc(=O)cc(O)c1c2=O	37	-8
Cc1c([N+](=O)[O-])c(C/C=N/O)nn1C	80	-5
CC(C)NC(=S)N/N=C/C1=CCC2CC1C2(C)C (stereo not given)	54	6
Cc1cc(C)cc(NC(=O)Nc2ccccc2N2CCCCC2)c1	43	-10
Cc1ccc(-c2nc(N)sc2CC(=O)OCC(=O)NCCC(C)C)cc1	47	13
Nc1ncnc(Nc2ccc(F)c(Cl)c2)n1	39	5
COc1ccc(OCCn2c(C)c(/C=N/n3cnnc3)c3ccccc32)cc1	103	-14
O=C(CCCc1ccccc1)NCCC1=CCCCC1	41	4
O=C(O)/C=C\C(=O)Nc1ccccc1F	65	6

Part of the list above in order of heavy-atom count, highest first:
SMILES	RmlCD inh 1536	RmlCD inh 1536 retest
COc1ccc(OCCn2c(C)c(/C=N/n3cnnc3)c3ccccc32)cc1	103	-14
CC1(C)c2ccccc2-n2c1cc1oc(=O)cc(O)c1c2=O	37	-8
O=C(CCCc1ccccc1)NCCC1=CCCCC1	41	4
CC(C)NC(=S)N/N=C/C1=CCC2CC1C2(C)C (stereo not given)	54	6
Nc1ncnc(Nc2ccc(F)c(Cl)c2)n1	39	5
